Compound activity as filed in PubChem BioAssay.
HUVEC inhibit: inhibitors of human endothelial cell proliferation; HUVEC proliferation, CellTiter-Glo luminescence, 72 h; hits give low values; viability, % at 10 µM (by protocol); hit rate 1.1% among 86,000; AID 648;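 active = viability at or below 30%; inactive = viability above 30%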;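 also: 100% = median luminescence of DMSO-only cell control wells on each plate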
Lung fibro prol: blocks proliferation of human lung fibroblasts; viability, % at 10 µM; LL 47 human lung fibroblast viability, ATP luminescence; hits give low values; hit rate 1.1% among 85,000;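 active = viability at or below 50% in the single dose screen; inactive = viability above 50%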;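 also: compound exposure lasted 72 h before the ATP readout; 100% = median luminescence of untreated cell-only wells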
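Material: human lung fibroblast line LL 47, low passage; Evaluation: viability percentage against median untreated-cell control; Buffer or medium: 15% FBS in IMEM; Incubation: 72 h compound exposure at 37 °C after overnight plating; Dosing: 0.1% DMSO in all compound wells; Measured by: CellTiter-Glo luminescence.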
PostGolgi ctrl: yeast control strain growth, post-Golgi counter-screen; efflux-deficient yeast background strain, growth absorbance A615, 16 h; inhibition, % at 10 µM; hit rate 5% among 98,000; in the data active = inhibition above about 30%
S1P2 ag: S1P2 (human) receptor agonism. S1P2-expressing cell line, agonist reporter read-out. activation, % at 4.5 µM. hit rate 0.46% among 97,000; in the data active = activation above about 16%;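 also: 0% = vehicle low control and 100% = maximal reference agonist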
Target sequence (O95136 whole entry, looked up): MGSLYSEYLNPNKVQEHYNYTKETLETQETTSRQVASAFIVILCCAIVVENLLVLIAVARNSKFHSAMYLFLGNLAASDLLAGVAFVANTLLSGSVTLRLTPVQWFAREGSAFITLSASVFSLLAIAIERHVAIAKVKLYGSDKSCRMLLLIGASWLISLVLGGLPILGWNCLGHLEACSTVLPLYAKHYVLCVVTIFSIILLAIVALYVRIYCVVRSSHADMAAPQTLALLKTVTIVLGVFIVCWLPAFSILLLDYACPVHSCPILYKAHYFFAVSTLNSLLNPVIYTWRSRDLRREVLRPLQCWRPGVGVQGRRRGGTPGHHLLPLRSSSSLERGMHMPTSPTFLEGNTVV
S1P2 blocker: S1P2 (human) receptor antagonism; O95136; AID 736; hit rate 0.21% among 97,000; cell-based S1P2 antagonist assay, inhibition at 5 uM; inhibition, % at 5 µM; in the data active = inhibition above about 45%;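 also: CRE beta-lactamase reporter cells expressing human S1P2 stimulated with S1P; 0% = agonist at EC80 alone and 100% = agonist plus reference antagonist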
The depositor's hits bear a star; . = not tested or not shown; & = joins results of further samples. Only part of the results is shown, so the mix of outcomes need not match the whole.

cpd | canonical_smiles | HUVEC inhibit | Lung fibro prol | PostGolgi ctrl
1 | Cc1ccc(S(=O)(=O)Nc2nc(C)cc(NCCN)n2)cc1 | 97 | 99 | -5
2 | CCSc1nnc(NC(=O)CSc2nnc(Cc3cccn3C)n2-c2ccc(C)cc2)s1 | 93 | 97 | 3
3 | CSc1nc(N2CCOCC2)c2c3c(sc2n1)CCC3 | 87 | 94 | 15
4 | CC(=O)OCP(C)(=O)COC(C)=O | 108 | 102 | 18
5 | Cc1ccc(-c2nc3c(cnn3-c3ccccc3)c(=O)o2)cc1 | 93 | 99 | 16
6 | Cc1sc2ncnc(N3CCN(c4ncccn4)CC3)c2c1C | 63 | 105 | 13
7 | CCOCCCn1c(=N)c(C(=O)NCc2ccc3c(c2)OCO3)cc2c(=O)n3cccc(C)c3nc21 | 78 | 62 | 2
8 | O=C(c1cccs1)N1CCN(C(=O)C(c2ccccc2)c2ccccc2)CC1 | 101 | 107 | 17
9 | CCOc1cc(C)c(Cl)cc1S(=O)(=O)N(C)C | 101 | 103 | 15
10 | Cc1ccc(SCc2nc(-c3cccnc3)no2)cc1 | 111 | 99 | 6

cpd | S1P2 ag | S1P2 blocker
1 | -4 | -13
2 | -5 | 1
3 | -5 | -39
4 | 2 | 1
5 | -2 | -4
6 | -2 | 7
7 | 0 | 16
8 | -7 | 11
9 | -5 | -1
10 | -6 | -6

Remaining list, next part:
cpd | canonical_smiles | HUVEC inhibit | Lung fibro prol | PostGolgi ctrl
11 | O=C(Nc1ccc2oc(=O)ccc2c1)c1cccnc1Cl | 109 | 109 | 2
12 | CNCCCC12CCC(c3ccccc31)c1ccccc12 | 67&85 | 74&77 | -4
13 | Cc1cc(=O)c2ccccc2[nH]1 | 94 | 103 | -3
14 | CCN(CC)CCNC(=O)c1ccc(N)cc1 | 91 | 101 | .
15 | COCCCNC(=O)CC(NS(=O)(=O)c1ccc(C)cc1)c1ccc(OC)cc1 (stereo not drawn) | 92 | 98 | -2
16 | CCOc1ccccc1C(=O)N(Cc1cccs1)C1CCS(=O)(=O)C1 (stereo not drawn) | 99 | 98 | -2
17 | C[C@]12CC[C@@H]3c4ccc(OS(=O)(=O)O)cc4CC[C@H]3[C@@H]1CCC2=O | 108 | 103 | .
18 | CSc1ccc(S(=O)(=O)NCc2ccccc2Cl)cc1 | 85 | 101 | 29
19 | CN(C)CCCN1c2ccccc2Sc2ccc(Cl)cc21 | 50 | 44* | -3
20 | OCCN(CCO)c1nc(N2CCCCC2)c2nc(N(CCO)CCO)nc(N3CCCCC3)c2n1 | 75 | 92 | .

cpd | S1P2 ag | S1P2 blocker
11 | -8 | -13
12 | -5 | 19
13 | -6 | 7
14 | . | .
15 | -4 | -6
16 | -5 | 16
17 | . | .
18 | -3 | -12
19 | -4 | 21
20 | . | .

Record cards, from the list above. Order of screens: HUVEC inhibit | Lung fibro prol | PostGolgi ctrl | S1P2 ag | S1P2 blocker
COCCCNC(=O)CC(NS(=O)(=O)c1ccc(C)cc1)c1ccc(OC)cc1 (stereo not drawn) is entered as 92 | 98 | -2 | -4 | -6
Cc1cc(=O)c2ccccc2[nH]1 is entered as 94 | 103 | -3 | -6 | 7
CSc1ccc(S(=O)(=O)NCc2ccccc2Cl)cc1 is entered as 85 | 101 | 29 | -3 | -12
CCN(CC)CCNC(=O)c1ccc(N)cc1 is entered as 91 | 101 | . | . | .
CCOc1ccccc1C(=O)N(Cc1cccs1)C1CCS(=O)(=O)C1 (stereo not drawn) is entered as 99 | 98 | -2 | -5 | 16

Another view of 2 compounds above.
19) CN(C)CCCN1c2ccccc2Sc2ccc(Cl)cc21
14) CCN(CC)CCNC(=O)c1ccc(N)cc1

| screen / no. | 19 | 14 |
| --- | --- | --- |
| HUVEC inhibit | 50 | 91 |
| Lung fibro prol | 44* | 101 |
| PostGolgi ctrl | -3 | . |
| S1P2 ag | -4 | . |
| S1P2 blocker | 21 | . |

Copied from the list:
entry 13 in S1P2 ag is listed with -6
entry 12 in S1P2 blocker is listed with 19
entry 15 in S1P2 ag is listed with -4
entry 11 in S1P2 blocker is listed with -13
entry 7 in PostGolgi ctrl is listed with 2
entry 8 in Lung fibro prol is listed with 107
